Bioassay records as filed in PubChem BioAssay.
EPAC1 ag val = validation of human EPAC1 agonists | 1% of 16,000 active | EPAC1 Rap1b BODIPY-GDP exchange, fluorescence | Potency, µM, for the others: max response, positive = active, usual class: activators; active means well fitted activation curve with a large enough effect; inconclusive means small, poorly fitted or top-dose-only effect; inactive means no such curve, though single readings can be large or run the other way;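 further: nearly all actives have a fitted effect of over 70% in size; series mostly up to about 76 or 150 µM; scaled to a cAMP control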
Target sequence (O95398 whole entry, looked up): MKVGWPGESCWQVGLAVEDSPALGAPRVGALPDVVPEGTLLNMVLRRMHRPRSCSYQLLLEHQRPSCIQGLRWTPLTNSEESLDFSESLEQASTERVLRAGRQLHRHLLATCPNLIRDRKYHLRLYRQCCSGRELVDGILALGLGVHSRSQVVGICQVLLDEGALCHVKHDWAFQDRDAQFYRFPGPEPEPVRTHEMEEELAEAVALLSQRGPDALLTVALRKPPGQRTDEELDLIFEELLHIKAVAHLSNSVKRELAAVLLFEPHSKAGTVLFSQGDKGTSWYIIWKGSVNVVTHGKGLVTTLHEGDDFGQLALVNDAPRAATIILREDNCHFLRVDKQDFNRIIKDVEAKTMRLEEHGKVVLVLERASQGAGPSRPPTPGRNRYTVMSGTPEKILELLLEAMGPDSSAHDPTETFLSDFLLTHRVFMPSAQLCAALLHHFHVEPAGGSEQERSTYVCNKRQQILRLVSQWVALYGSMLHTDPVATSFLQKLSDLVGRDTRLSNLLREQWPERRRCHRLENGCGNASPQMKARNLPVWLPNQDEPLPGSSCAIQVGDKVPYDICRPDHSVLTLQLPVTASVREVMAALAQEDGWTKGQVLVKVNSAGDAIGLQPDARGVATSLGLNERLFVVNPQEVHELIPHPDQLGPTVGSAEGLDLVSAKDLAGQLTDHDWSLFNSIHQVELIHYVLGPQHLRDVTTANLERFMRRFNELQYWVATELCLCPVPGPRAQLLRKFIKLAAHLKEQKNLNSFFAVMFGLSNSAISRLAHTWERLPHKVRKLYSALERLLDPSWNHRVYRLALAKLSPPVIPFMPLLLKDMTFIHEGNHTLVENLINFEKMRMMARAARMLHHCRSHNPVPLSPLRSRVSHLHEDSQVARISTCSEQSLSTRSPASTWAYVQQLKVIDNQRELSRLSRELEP
* marks the source's active call; other numbers are inactive results; u = inconclusive; & = joins results of further samples; [ ] = dose if it differs, or a comment. On the % scale 0 is the no-effect control and ±100 the full control effect; potency means the concentration at half of the fitted maximal effect. An excerpt; count on the stated rates, not on these rows.

SMILES | EPAC1 ag val
COc1cccc(-c2cncnc2NCc2cccs2)c1 | 3.0%
C=C[C@H](CC(C)C)N(Cc1ccccc1)S(=O)(=O)N(Cc1ccccc1)[C@H](C=C)CC(C)C | 24.8%
CCCCCCCCCCCCCCSCC(=O)O | -15.5%&-61.6%
CC1(C)S[C@@H]2[C@H](NC(=O)C(C(=O)O)c3ccsc3)C(=O)N2[C@H]1C(=O)O (stereo partly specified) | -29.9%
COCCCNc1ncnc2sc(C(=O)N3CCOCC3)c(C)c12 | -22.8%
CC1CCc2cc(F)cc3c(=O)c(C(=O)O)cn1c23 (stereo unspecified) | 26.1%
COc1cccc(-c2nc(NCc3cnc(C)cn3)c3ccccc3n2)c1 | 18.7%
CNc1ncnc2ccc(-c3ccc4c(c3)OCO4)cc12 | -8.4%
COCc1c(C(=O)NC2CCCCC2)cnn1-c1nccc(-c2cc(C)sc2C)n1 | 3.9%
O=c1[nH]ccc2c(O)cccc12 | 3.7%
N[C@@H](C(=O)N[C@@H]1C(=O)N2C(C(=O)O)=C(CSc3cn[nH]n3)CS[C@H]12)c1ccc(O)cc1 | 9.4%
COc1cccc(-c2nc3cc(SC)ccc3cc2CN(C(=O)c2sccc2C)C2CC2)c1 | u
CCCCN1C[C@H](O)[C@@H](O)[C@H](O)[C@H]1CO | -14.3%
CC(C)NC(=O)c1cn([C@H]2CC[C@@H](NC(=O)/C=C/c3cccs3)CC2)nn1 | 14.4%
Nc1ccc(C(=O)O)cc1 | 21.7%&-17.6%
COc1ccc(CN2CCC3(CC2)c2ccccc2[C@@H](NC(=O)c2ccccc2OC)[C@@H]3O)cc1O | -14.1%
CN1C(=O)CN2CCc3ccccc3C2c2cc(Cl)ccc21 (stereo unspecified) | 12.3%
COc1ccc(C(=O)N2CCC[C@@]3(CCN(c4ncccn4)C3)C2)cc1 | -58.0%[inhibitor]
CC(C)CN1CC2(CCN(C(=O)c3ccco3)CC2)C1 | u
COC(=O)[C@@H]1CCCN1Cc1ccc2c(c1)CN(Cc1nccs1)CCO2 | -7.3%
CCCC[C@H]1COCCS(=O)(=O)N1Cc1cccc([N+](=O)[O-])c1 | 10.9%
O=C(Nc1cc(C(=O)Nc2ccc(S(=O)(=O)O)cc2S(=O)(=O)O)cc(C(=O)Nc2ccc(S(=O)(=O)O)cc2S(=O)(=O)O)c1)Nc1cc(C(=O)Nc2ccc(S(=O)(=O)O)cc2S(=O)(=O)O)cc(C(=O)Nc2ccc(S(=O)(=O)O)cc2S(=O)(=O)O)c1 | u
O=c1c(-c2cccc(F)c2)nc2cncnc2n1Cc1ccccc1Cl | u
COC(=O)C1=C(C)NC(C)=C(C(=O)OC(C)(C)CN(C)CCC(c2ccccc2)c2ccccc2)C1c1cccc([N+](=O)[O-])c1 (stereo unspecified) | u
CCN(CC)CCNC(=O)c1ccc(NS(C)(=O)=O)cc1 | -3.7%
Cc1ccc(SC[C@H](C)CN2CC[C@H](O)CCC2=O)cc1 | u
CN(C)c1ncnc2ccc(-c3ccccc3C(F)(F)F)cc12 | -84.3%[inhibitor]
C=C(C)C1CC[C@]2(CO)CC[C@@]3(C)[C@H](CCC4[C@@]5(C)CCC(O)C(C)(C)C5CC[C@@]43C)C12 (stereo partly specified) | u
COc1cccc(CN2CCOc3ccc(CN4C[C@@H](C)O[C@@H](C)C4)cc3C2)c1OC | -15.2%
CCCCC[C@H](O)/C=C/[C@@H]1[C@@H](CC(=O)CCCCC(=O)O)[C@@H](O)C[C@H]1O | -12.1%
N[C@@H](CS(=O)O)C(=O)O | -2.7%&-15.6%&-15.7%&3.8%
Cc1c(-c2ccccc2)oc2cc(O)ccc2c1=O | 2.8%
COc1ccc2[nH]cc(CCNc3ncnc4ccc(-c5ccc(C(=O)N(C)C)cc5)cc34)c2c1 | -47.4%
CN(C)C=Nc1c(I)cc(I)c(CCC(=O)O)c1I | -3.1%
Cn1cc(-c2nc3cnc(Oc4cccc(Cl)c4)nc3n(C3CC3)c2=O)c2ccccc21 | u
N=C1N=C(N)c2cc3ccccc3cc21 | 8.9%
CN(C)C(=O)c1cc(CNCc2ccc(C(F)(F)F)cc2)cc(NC(=O)c2ccccn2)c1 | -8.2%
CC(O)(COc1ccccc1)c1ccc2c(c1)CN(Cc1cccn1-c1ccccn1)CCO2 (stereo unspecified) | -5.5%
C=C[C@@H]1c2cc(C)ccc2N(S(=O)(=O)c2ccc(C)cc2)[C@H](c2ccc(OC(C)=O)cc2)C1(C#N)C#N | -24.3%
NS(=O)(=O)c1cccc2c1c([N+](=O)[O-])cc1[nH]c(=O)c(=O)[nH]c12 | 2.0%
CS(=O)(=O)N1CCC2(CC1)CN(Cc1ccc(C#N)cc1)C2 | 3.7%
COc1cccc(/C=C/C(=O)O)c1C(C)C | 0.7%
CC[N+](CC)(CC)CCOc1cccc(OCC[N+](CC)(CC)CC)c1OCC[N+](CC)(CC)CC | -4.7%&9.6%
N[C@@H](C(=O)O)c1ccc(P(=O)(O)O)cc1 | -5.5%
COc1ccc2c(c1)OC(C)CN(CCNC(=O)C1CCOC1)C2 (stereo unspecified) | 6.3%
CCCCOC(=O)NS(=O)(=O)c1sc(CC(C)C)cc1-c1ccc(Cn2c(CC)nc3c(C)cc(C)nc32)cc1 | 2.2%
O=C(c1cnccn1)N1CCC2(CC1)CN(c1ccccc1)C2 | 9.6%
O=CCCCC=O | -5.7%
CC(C)C[C@@H](CO)N(Cc1ccccc1)S(=O)(=O)N(Cc1ccccc1)[C@H](CO)CC(C)C | -19.4%
Cn1nccc1C(=O)NCC1CCC2(CCN(Cc3ccc(-c4ccc(Cl)cc4)o3)CC2)O1 (stereo unspecified) | -4.0%
Cc1cccc2nc(CNC(=O)CN3Cc4ccccc4OC(c4ccccc4F)C3)cn12 (stereo unspecified) | -11.4%
COc1ccc(CCN(C)CCCOc2ccc(S(=O)(=O)c3[nH]c4ccccc4c3C(C)C)cc2)cc1OC | 18.8%
CC(=O)OCC(=O)Nc1cc(C#N)cc(NC(=O)COC(C)=O)c1Cl | 23.8%
Cc1ccc(F)cc1S(=O)(=O)NCc1nc(N2CCCC2)c2cccc(C)c2n1 | -0.7%
COc1cc(-c2cc(C)c3cccc(OC)c3n2)cc2c1OCCN(C(=O)CCn1nc(C)cc1C)C2 | 8.8%
CCOC(=O)[C@@](C)(N)Cc1ccc(O)c(O)c1 | -3.5%
[C-]#[N+]c1cc(-c2ccncc2)c(C)[nH]c1=O | -9.0%
O=C(Oc1ccccc1)N1CCC[C@@]2(CCN(c3ncccn3)C2)C1 | -54.6%[inhibitor]
C[C@H](NC(=O)CNC(=O)[C@@H](NC(=O)[C@H](Cc1ccccc1)NC(=O)CNC(=O)CNC(=O)[C@@H](N)Cc1ccccc1)[C@@H](C)O)C(=O)N[C@@H](CCCN=C(N)N)C(=O)N[C@@H](CCCCN)C(=O)N[C@@H](CO)C(=O)N[C@@H](C)C(=O)N[C@@H](CCCN=C(N)N)C(=O)N[C@H](CN)CCCCN | -6.7%
COc1ccc2c(c1)-c1nc(-n3ncc(C(=O)NCc4cccc(C)n4)c3C3CC3)ncc1CC2 | -7.6%

Arranged by number of heavy atoms (low to high): 13 of the compounds above.
SMILES | EPAC1 ag val
O=CCCCC=O | -5.7%
[C-]#[N+]c1cc(-c2ccncc2)c(C)[nH]c1=O | -9.0%
CCOC(=O)[C@@](C)(N)Cc1ccc(O)c(O)c1 | -3.5%
O=C(c1cnccn1)N1CCC2(CC1)CN(c1ccccc1)C2 | 9.6%
COc1ccc2c(c1)OC(C)CN(CCNC(=O)C1CCOC1)C2 (stereo unspecified) | 6.3%
CC(=O)OCC(=O)Nc1cc(C#N)cc(NC(=O)COC(C)=O)c1Cl | 23.8%
Cc1ccc(F)cc1S(=O)(=O)NCc1nc(N2CCCC2)c2cccc(C)c2n1 | -0.7%
Cn1nccc1C(=O)NCC1CCC2(CCN(Cc3ccc(-c4ccc(Cl)cc4)o3)CC2)O1 (stereo unspecified) | -4.0%
COc1ccc2c(c1)-c1nc(-n3ncc(C(=O)NCc4cccc(C)n4)c3C3CC3)ncc1CC2 | -7.6%
COc1cc(-c2cc(C)c3cccc(OC)c3n2)cc2c1OCCN(C(=O)CCn1nc(C)cc1C)C2 | 8.8%
COc1ccc(CCN(C)CCCOc2ccc(S(=O)(=O)c3[nH]c4ccccc4c3C(C)C)cc2)cc1OC | 18.8%
CCCCOC(=O)NS(=O)(=O)c1sc(CC(C)C)cc1-c1ccc(Cn2c(CC)nc3c(C)cc(C)nc32)cc1 | 2.2%
C[C@H](NC(=O)CNC(=O)[C@@H](NC(=O)[C@H](Cc1ccccc1)NC(=O)CNC(=O)CNC(=O)[C@@H](N)Cc1ccccc1)[C@@H](C)O)C(=O)N[C@@H](CCCN=C(N)N)C(=O)N[C@@H](CCCCN)C(=O)N[C@@H](CO)C(=O)N[C@@H](C)C(=O)N[C@@H](CCCN=C(N)N)C(=O)N[C@H](CN)CCCCN | -6.7%

Remaining list, next part:
SMILES | EPAC1 ag val
C/C1=C2N=C(/C=C3N=C(/C(C)=C4\[N-]C(C(CC(N)=O)C4(C)CCC(=O)NCC(C)OP(=O)([O-])OC4C(CO)OC(n5cnc6cc(C)c(C)cc65)C4O)C4(C)N=C1C(CCC(N)=O)C4(C)CC(N)=O)C(CCC(N)=O)C\3(C)C)C(CCC(N)=O)C/2(C)CC(N)=O.[CH3-].[Co+3] (stereo unspecified) | 2.1%
CN(c1ccccc1)S(=O)(=O)c1ccccc1Br | u
CCS(=O)(=O)NCc1c(C)ncc2c1CCN(C(=O)c1csc(-c3cccs3)n1)C2 | -1.3%
O=C(c1cnccn1)N1CCC2(CCCN(c3ncccn3)C2)CC1 | -10.5%
CCn1c(-c2ccccc2F)nc2cc(NC(C)=O)cc(C(=O)N(C)Cc3c(C)nc4ccccn34)c21 | -0.7%
C[C@@H]1CCN=C(N)S1 | 10.7%
C#C[C@]1(O)CCC2C3CCC4=C(CCC(=O)C4)C3CC[C@@]21C (stereo partly specified) | u
NCCc1ccn[nH]1 | -19.8%
CS(=O)(=O)c1ccc([C@@H](O)[C@@H](COC(=O)CN)NC(=O)C(Cl)Cl)cc1 | 5.3%
OCC1CCCN(c2nc3cc4c(cc3cc2CNCc2cccs2)OCO4)C1 (stereo unspecified) | -2.4%
O=c1c(-c2cc(F)cc(F)c2)nc2cncnc2n1Cc1ccc(F)cc1 | 25.1%
CCOC(=O)CCC(=O)O[C@H]1[C@H](O[C@@H]2[C@@H](C)[C@H](O[C@H]3C[C@@](C)(OC)[C@@H](O)[C@H](C)O3)[C@@H](C)C(=O)O[C@H](CC)[C@@](C)(O)[C@H](O)[C@@H](C)C(=O)[C@H](C)C[C@@]2(C)O)O[C@H](C)C[C@@H]1N(C)C | -3.4%
COc1ccc(Oc2ncc3nc(C)c(=O)n(CCC#N)c3n2)cc1 | -19.8%
C#C[C@]1(O)CC[C@H]2[C@@H]3CCC4=CC(=O)CC[C@@H]4[C@H]3CC[C@@]21C | 29.1%
CC(C)(O)C#Cc1ccc(C(=O)NCCN2Cc3ccccc3OC(c3ccccc3F)C2)o1 (stereo unspecified) | 25.7%
CCCCCCCCCCCC(=O)OC[C@@H](O)C1OC[C@H](O)[C@H]1O (stereo partly specified) | -128.5%[inhibitor]
CC(C)NCC(O)c1ccc2ccccc2c1 (stereo unspecified) | 24.5%&-8.1%
COc1ccccc1CN1CCCC2(CCNCC2)C1 | -15.5%
Cc1nc(NS(=O)(=O)c2ccc(N)cc2)nc(C)c1Br | 7.9%
CCn1cc(C(=O)O)c(=O)c2cnc(N3CCCC3)nc21 | u
CCn1cc(C(=O)O)c(=O)c2cc3c(cc21)OCO3 | 2.4%&10.1%
CCN1CCC[C@H]1CNC(=O)c1cc(S(N)(=O)=O)ccc1OC | -4.5%&-17.4%&-5.8%&-0.6%
CC(=O)Nc1ccc(C(=O)N2CCCC(c3nc(SCc4ccccn4)ncc3C)C2)cc1 (stereo unspecified) | 1.8%
CN(C)c1ccc(CN2CCOc3ccc(CN4CCC(O)(c5cccnc5)CC4)cc3C2)cc1 | -6.6%
O=C(NCc1nnc2n1CCN(Cc1ccc(C(F)(F)F)cc1)CC2)c1cccc(F)c1 | -9.8%
CN1CCN(c2ncnc3ccc(-c4ccc5c(c4)OCO5)cc23)CC1 | -24.5%
CC(CN(C)C)CN1c2ccccc2S(=O)(=O)c2ccccc21 (stereo unspecified) | 4.1%
COc1ccc(-c2nc3cc(C)ccc3cc2CN(C(=O)c2ccc(C)s2)C2CC2)cc1OC | 4.7%
O=C(Nc1ccc(Br)cc1)c1cc(Br)c(Br)s1 | u
CCCCCCCCCCCCCCCCCC(=O)OCC(O)CO (stereo unspecified) | u
COc1ccc2c(c1OC)C(Cc1ccccc1)N1CCc3cc4c(cc3C1=C2)OCO4 (stereo unspecified) | u
COc1ccc(-c2coc3c(OC)c(OC)cc(O)c3c2=O)cc1 | u
COc1ccccc1C1CN(Cc2cccnc2)Cc2ccccc2O1 (stereo unspecified) | 5.1%
CCCCC(=O)O | 8.7%&21.1%
Cc1ncc2c(c1CNC(=O)/C=C/c1cccs1)CCN(C(=O)C1CCCO1)C2 (stereo unspecified) | -0.4%
N[C@@]1(C(=O)O)CN[C@@H](C(=O)O)C1 | -14.7%
C[C@@]12CCC3c4ccc(OS(=O)(=O)O)cc4CCC3C1CCC2O (stereo partly specified) | 13.4%
COc1ccc(NC(=O)N2CCCC3(CCN(C(=O)c4cccn4C)CC3)C2)cc1 | -42.5%[inhibitor]
COCc1c(C(=O)N2CCN(C3CCCC3)CC2)cnn1-c1nccc(-c2cccs2)n1 | 19.0%
Cc1cc(Cl)ccc1OCC(=O)NCC1Cc2cc(-c3cnccn3)ccc2O1 (stereo unspecified) | -9.7%
Cc1ccc(C(=O)Nc2cccc(-c3nc(CNC(=O)c4cccc(N(C)C)c4)c(C)o3)c2)s1 | 13.4%
CN1CCN(c2ncc3nc(-c4cn(C)c5ccccc45)c(=O)n(CCc4ccccc4)c3n2)CC1 | -6.7%
CC1(C)[C@@H](O)CC[C@]2(C)[C@H]3C(=O)C=C4[C@@H]5C[C@@](C)(C(=O)O)CC[C@]5(C)CC[C@@]4(C)[C@]3(C)CC[C@@H]12 | 20.1%&-29.8%
O=C(c1cnccn1)N1CCC[C@@]2(CCN(Cc3ccccc3)C2)C1 | 1.2%
O=c1cnc2cncnc2n1Cc1ccccc1Cl | 12.4%
N#CCCn1c(=O)c(-c2cccs2)nc2cnc(Oc3ccccc3)nc21 | 7.8%
